Bioassay records (PubChem BioAssay)
StopGo RLuc – FMDV 2A StopGo reporter, Renilla signal; HEK cells with a luciferase reporter of 2A StopGo recoding; Potency, µM (doses to about 57.5 µM), for inactives: top-dose signal change, negative = less light; 120,000 compounds, 0.32% hits; active means well fitted falling curve with a large enough effect; inconclusive means small, poorly fitted or top-dose-only effect; inactive means no such curve, though single readings can be large or run the other way; further: nearly all actives have a fitted effect of over 55% in size; overnight with compound
2A firefly – FMDV 2A StopGo reporter, firefly signal; HEK cells with a luciferase reporter of 2A StopGo recoding; Potency, µM (titrated, usually from 57.5 µM), for inactives: top-dose signal change, negative = less light; 120,000 compounds, 0.23% hits; AID 1745856; active = well fitted falling curve with a large enough effect; inconclusive = small, poorly fitted or top-dose-only effect; inactive = no such curve, though single readings can be large or run the other way; further: nearly all actives have a fitted effect of over 60% in size; overnight with compound
Starred values were filed as active, the others as inactive; ? = inconclusive; [ ] = dose if it differs, or a comment. On the % scale 0 is the no-effect control and ±100 the full control effect; potency means the concentration at half of the fitted maximal effect. Rows are unselected (roughly 0.53% active in at least one column).

SMILES	StopGo RLuc	2A firefly
COC(=O)c1sc2cccc(F)c2c1S(=O)(=O)N1CCN(c2cc(C)ccc2C)CC1	13%	-1%
O=C(Oc1cccc(Br)c1)c1cccc2ccccc12	10%	0%
Cc1cccc(NC(=O)c2cc(=O)c3cc(C)cc(C)c3o2)c1	-4%	-7%
Cc1cc(NC(=O)CN(c2cccc(C)c2C)S(=O)(=O)c2ccccc2)ccc1Br	?	?
COC(=O)[C@H](C(C)C)N(CCc1cn(Cc2ccc(C)cc2)nn1)S(=O)(=O)c1ccccc1Br	0%	5%
CCCOc1ccc(C2=NC(c3ccncc3)=Nc3ccc(C)cc3N2)cc1	5%	9%
O=C(Nc1ccc(-c2ccccc2)cc1)c1cc(F)c(F)cc1Cl	8%	89%[activator]
CCOc1ccc(OCC)c(-n2cnnn2)c1	-21%	-20%
COc1ccc(CNC(=O)C(=O)Nc2ccc(C)cc2C)cc1	-4%	19%
CCOC(=O)c1[nH]c(C)c(C(=O)OCc2ccc(C(N)=O)cc2)c1C	46%[activator]	34%
O=C(O)C1CCN(S(=O)(=O)c2cc(Cl)ccc2Cl)CC1	-11%	-7%
COc1ccc(C)cc1NC(=O)c1nc(-c2ccccc2)oc1C	-16%	-10%
Clc1cccc(N2CCN(c3ncnc4c3nc3n4CCCC3)CC2)c1	?	0%
CC1CCN(C(CNC(=O)c2cc3ccccc3oc2=O)c2cccs2)CC1 (stereo not given)	-4%	5%
CCn1nc(C(=O)N(C)Cc2cccc(OC)c2)c2ccccc2c1=O	14%	-1%
CCOc1ccccc1NC(=O)Cn1c(=O)nc(-c2ccccc2F)c2cc(Cl)ccc21	-13%	17%
CCOCCn1c(N2CCCCCC2)nc2c1c(=O)[nH]c(=O)n2C	2%	8%
Cn1c(SCC(=O)NC(=O)NC2CCCC2)nnc1-c1ccc(C(C)(C)C)cc1	-5%	57%[activator]
CCCCc1nnc2sc(-c3ccc(OCC)c(OCC)c3)nn12	-2%	10%
Cc1cccc(C(=O)NCCc2nc3ccccc3n2Cc2ccccc2Cl)c1	13%	-3%
COc1ccccc1Nc1nc(-c2ccc(F)cc2)c2c(n1)-c1ccccc1OC2	-27%	-8%
CC(C)CCNC(=O)Cn1cc(C#N)c2ccccc21	18%	28%
Cc1ccc(-n2nc(C)c3c(C)c(CCC(=O)NCc4ccccc4Cl)c(C)nc32)cc1C	-11%	-21%
CN=c1scc(C)n1/N=C/C1CCCCC1	-1%	215%[activator]
N#Cc1cccc(NC(=O)CSc2nc3c(cc2C#N)N2CCC3CC2)c1	-19%	24%

Continuation:
SMILES	StopGo RLuc	2A firefly
CCOc1ccc(NC(=O)Cn2c(=O)n(CCCCC(=O)NCCc3ccc(Cl)cc3)c(=O)c3ccccc32)cc1	-3%	-4%
COc1cc2c(cc1OC)-c1c(c(C(=O)N3CCC(C(N)=O)CC3)nn1-c1cccc(Cl)c1)C2	24%	8%
CCOC(=O)c1ccc2[nH]c(CSCC(=O)Nc3cccc(Cl)c3C)cc(=O)c2c1	2%	-11%
CCOc1ccccc1CNc1ccc(N2CCOCC2)c(C(=O)O)c1	-6%	0%
O=C(O)c1cc(-c2cccc(Cl)c2)nc2ccccc12	?	64%[activator]
O=S(=O)(Nc1cccc(C#Cc2cccs2)c1)c1cccs1	139%[activator]	24%
CC(=O)c1c[nH]c2cc(C#N)ccc12	6%	1%
Cc1ccc(-c2cc3c(n2-c2ccccc2F)CC(C)(C)CC3=O)cc1	-13%	0%
COc1ccc(CCNc2nc(-c3ccc(C)cc3)cc(C(F)F)n2)cc1OC	-15%	-17%
COC(=O)c1ccc(NC(=O)C(=O)NCC(c2cccnc2)N2CCN(c3ccccc3)CC2)cc1 (stereo not given)	88%[activator]	91%[activator]
CCOc1cccc(C(=O)NNC(=O)C2C3CCC(C3)C2C(=O)O)c1 (stereo not given)	-4%	74%[activator]
CCCNC(=O)NC(=O)CN(CCC1CCCCC1)CC(N)=O	12%	0%
O=C(CCSc1ccccc1Cl)OCC(=O)c1ccc(C2CCCCC2)cc1	-3%	-1%
Cc1ccc2nc(-c3ccc(C)c(NC(=O)c4ccc([N+](=O)[O-])cc4)c3)oc2c1	7%	118%[activator]
CC(C)Oc1ccc(C(=O)N(Cc2ccco2)Cc2cccs2)cc1	110%[activator]	-19%
CCc1cccc2c(C(=O)CSc3nncn3C)c[nH]c12	0%	129%[activator]
COc1cccc(C2=C(C(C)=O)Sc3nnc(C)n3N2C(C)=O)c1	?	9%
Cc1ccc(C(=O)Nc2ccc3c(c2)N(C)C(=O)c2ccccc2S3)cc1	?	?
COc1c(C)cccc1C(=O)Nc1ccc(Cl)c(-c2nc3cc(C)ccc3o2)c1	9%	21%
COc1ccc(CNC(=O)c2cc(=O)c3c(C)cc(C)cc3o2)cc1	30%	9%
Cc1ccc(CNc2oc(-c3ccc(COc4ccc(Cl)cc4)o3)nc2C#N)cc1	-18%	15%
CC(=O)c1cccc(Nc2nc3ccccc3nc2NS(=O)(=O)c2ccc(C)c(C)c2)c1	145%[activator]	6%
Cc1[nH][nH]c(=O)c1C(c1ccc(OCc2ccccc2)cc1)c1c(C)[nH][nH]c1=O	12%	132%[activator]
O=C(CSCc1cccs1)NCC1CCCO1 (stereo not given)	2%	27%
Cc1ccc(CNC(=O)C2(C)CN(S(C)(=O)=O)CC(=O)N2c2cc(C)ccc2C)cc1 (stereo not given)	-7%	-2%

Single records (already shown). Order of screens: StopGo RLuc, 2A firefly
`COc1ccc(CNC(=O)c2cc(=O)c3c(C)cc(C)cc3o2)cc1` is listed with 30%, 9%
`CCOc1ccc(NC(=O)Cn2c(=O)n(CCCCC(=O)NCCc3ccc(Cl)cc3)c(=O)c3ccccc32)cc1` is listed with -3%, -4%
`CCOC(=O)c1ccc2[nH]c(CSCC(=O)Nc3cccc(Cl)c3C)cc(=O)c2c1` is listed with 2%, -11%
`O=C(O)c1cc(-c2cccc(Cl)c2)nc2ccccc12` is listed with ?, 64%[activator]

Following part
SMILES	StopGo RLuc	2A firefly
CC(OC(=O)c1cc(S(C)(=O)=O)ccc1Cl)C(=O)Nc1nc(-c2ccccc2)cs1 (stereo not given)	3%	0%
N#Cc1c(NC(=O)CSc2nccn2Cc2ccccc2)sc2c1CCC2	20%	94%[activator]
CCn1c(=O)c2cc(C(=O)NCCc3cccc(C)c3)sc2c2ccccc21	4%	19%
CCSc1nc(C)cc(C(F)(F)F)c1C#N	-5%	-8%
O=C(O)C#CC(O)(c1ccccc1)c1ccccc1	2%	17%
Cc1ccc(CCNC(=O)c2nn(C)c3c2CSc2ccccc2-3)cc1	-11%	-6%
O=C(CSc1nc(-c2cccs2)nc2ccccc12)N1CCCCC1	14%	15%
CC1(C)Cc2sc3c(=O)n(CC(=O)c4ccc(Br)cc4)cnc3c2CO1	-3%	?
O=C(Nc1ccc(F)cc1)C1CCN(c2nc3ccccc3n3cccc23)CC1	-10%	-16%
CC(NC/C=C/c1ccccc1)c1ccccc1 (stereo not given)	-5%	8%
CC(C)(C)c1nnc(NC(=O)C2CCN(C(=O)c3ccccc3Cl)CC2)s1	-22%	-9%
CC(CCN1CCC(C(O)(c2ccccc2)c2ccccc2)CC1)Oc1cc(F)cc(C#N)c1 (stereo not given)	11%	-3%
COc1ccc(C(=O)COC(=O)C(CC(=O)c2ccccc2)Nc2ccccc2OC)cc1 (stereo not given)	6%	142%[activator]
CC(=O)c1cccc(NC(=O)CCS(=O)(=O)c2ccc(Br)s2)c1	16%	20%
Cc1cc(C)cc(C(=O)N(C)C2CCN(CCc3ccccn3)CC2)c1	-18%	-13%
O=C(c1ccccc1F)N(Cc1cccs1)C1CC1	24%	-12%
CCc1ccccc1NC(=O)Cn1c(=O)c2cccn2c2ccc(F)cc21	20%	10%
COCCCNC(=S)NNC(=O)CC(c1ccccc1)c1ccccc1	44%[activator]	1%
CC1(C)CC2(C)OC(=O)OC2(C)c2ccccc21 (stereo not given)	4%	5%
CN(C)CCCNC(=O)c1nc(-c2ccc3[nH]ccc3c2)no1	-3%	19%
COc1ccccc1-c1nc2n(n1)C(c1cccs1)C(C(=O)Nc1cccnc1)=C(C)N2 (stereo not given)	6%	2%
CCOc1ccc(C(=O)Nc2ccc3oc(-c4ccncc4)nc3c2)cc1Br	6.3µM*	?
Cc1ccc(S(=O)(=O)Nc2nc3ccccc3nc2Nc2cccc(Cl)c2)cc1	2%	17%
CC(NC(=O)C1CC1C)c1ccc2c(c1)CCCC2 (stereo not given)	-19%	11%
CCC[N+](CC#CCO)(CC#Cc1ccccc1)CCC	-1%[1.06 µM]	-2%

4 entries from above, with bars between the fields.
compound | StopGo RLuc | 2A firefly
O=C(CSc1nc(-c2cccs2)nc2ccccc12)N1CCCCC1 | 14% | 15%
CC1(C)Cc2sc3c(=O)n(CC(=O)c4ccc(Br)cc4)cnc3c2CO1 | -3% | ?
O=C(Nc1ccc(F)cc1)C1CCN(c2nc3ccccc3n3cccc23)CC1 | -10% | -16%
CC(NC/C=C/c1ccccc1)c1ccccc1 (stereo not given) | -5% | 8%

A different layout for some results above.
| SMILES | StopGo RLuc | 2A firefly |
| --- | --- | --- |
| CCCNC(=O)NC(=O)CN(CCC1CCCCC1)CC(N)=O | 12% | 0% |
| CCOc1ccccc1CNc1ccc(N2CCOCC2)c(C(=O)O)c1 | -6% | 0% |
| CC(=O)c1cccc(Nc2nc3ccccc3nc2NS(=O)(=O)c2ccc(C)c(C)c2)c1 | 145%[activator] | 6% |
| COCCCNC(=S)NNC(=O)CC(c1ccccc1)c1ccccc1 | 44%[activator] | 1% |
| CC(C)Oc1ccc(C(=O)N(Cc2ccco2)Cc2cccs2)cc1 | 110%[activator] | -19% |

The listing continues:
SMILES	StopGo RLuc	2A firefly
CNCc1ccc(-c2cccc(C(F)(F)F)c2)o1	1%	0%
COc1ccccc1C(=O)Nc1ccccc1C(=O)OCc1cc(=O)n2ccsc2n1	4%	-1%
CCC(CC)C(=O)Nc1sc2c(c1C#N)CCCC2	9%	16%
N#CCC(=O)Nc1ccc(C(=O)OCc2cccc(Cl)c2)cc1	16%	38%[activator]
C[N+]1(Cc2ccccc2F)CCN(/C=C/C(=O)C(F)(F)F)CC1	4%	-2%
COc1cc(Cl)c(NC(=O)CCS(=O)(=O)c2cc3c(cc2Cl)NC(=O)CO3)c(OC)c1	5%	3%
CC(=O)N1CCc2c(sc3c2c(=O)n(-c2ccccc2)c(=O)n3CC(=O)c2ccccc2)C1	-13%	-2%
COc1ccc(-c2cc(=O)c3cc(OC(=O)C(C)(C)C)ccc3o2)cc1	55%[activator]	187%[activator]
CCOC(=O)c1nc(NCc2ccc(F)cc2)c2ccccc2n1	-11%	-4%
O=C(NCCNCc1c[nH]c2ccccc12)c1ccccc1F	-28%	-22%
CC(C)CCNC(=O)c1nn(C)c2c1CSc1ccccc1-2	25%	26%
COC(=O)CSc1nnc(-c2cccc(O)c2)o1	2%	-9%
CC1=C(C(=O)c2ccccc2)C(c2ccc(Br)cc2)NC(=O)N1 (stereo not given)	-18%	-8%
Cc1cccc(NC(=O)NCCc2nnc3n2CCCCC3)c1	-8%	4%
COc1ccccc1-c1nc(C#N)c(N(C)Cc2ccccc2)o1	38%[activator]	31%[activator]
COc1cc(C2C(=O)N(C3CCC(C)CC3)CC(=O)N2CCc2ccc(Cl)cc2)ccc1OC(C)C (stereo not given)	-2%	-19%
COc1cc(/C=N/O)c(Br)cc1O	22%	21%
COc1ccccc1Nc1nc(-c2ccc3c(c2)CC(C)N3S(C)(=O)=O)cs1 (stereo not given)	-14%	0%
COc1ccc2c(c1)c(C(C(=O)O)N1C[C@H](C)C[C@H](C)C1)cn2CC(=O)O (stereo not given in full)	-6%	3%
O=S(=O)(c1ccc(Br)s1)N1CCC(n2c(C(F)(F)F)nc3cccnc32)CC1	19%	8%
CCc1ccc(NC(=O)Cn2nnc(C(=O)NCc3ccco3)c2N)cc1	-10%	-26%
Cc1c(C(=O)Nc2ccccc2Cl)oc2ccc(S(=O)(=O)N3CCCCC3)cc12	47%[activator]	43%[activator]
CCCc1nn2c(=O)cc(COC(=O)c3cc(OC)c(OC)c(OC)c3)nc2s1	8%	8%
CC1(C)NC(=O)N(c2ccc([N+](=O)[O-])c(C(F)(F)F)c2)C1=O	-3%	1%[11.5 µM]
Cc1ccc(C(=O)OCC(=O)c2cc(C)n(Cc3ccco3)c2C)s1	37%	131%[activator]

Next compounds:
SMILES	StopGo RLuc	2A firefly
O=C(NC12CC3CC(CC(C3)C1)C2)C1CCCc2ccccc21 (stereo not given)	15%	-11%
Nc1c(C(=O)Nc2cccc(Cl)c2)sc2nc3c(cc12)CN(Cc1ccccc1)CC3	?	0%
CCCc1ccc(NC(=O)c2nccnc2N)cc1	2%	0%
CC(C)Cn1c(SCC(=O)NCc2ccccc2Cl)nc2ncccc2c1=O	38%[activator]	0%
COc1ccc(Nc2nnc(-c3ccc(C)c(S(=O)(=O)NCc4nc5ccccc5[nH]4)c3)c3ccccc23)cc1	-11%	-14%
CCOC(=O)C(C)Sc1ccc2nnc(CCNS(=O)(=O)c3ccccc3)n2n1 (stereo not given)	-1%	0%

A section of the results above, as a working copy:
SMILES	StopGo RLuc	2A firefly
COC(=O)c1sc2cccc(F)c2c1S(=O)(=O)N1CCN(c2cc(C)ccc2C)CC1	13%	-1%
O=C(Oc1cccc(Br)c1)c1cccc2ccccc12	10%	0%
Cc1cccc(NC(=O)c2cc(=O)c3cc(C)cc(C)c3o2)c1	-4%	-7%
Cc1cc(NC(=O)CN(c2cccc(C)c2C)S(=O)(=O)c2ccccc2)ccc1Br	?	?
COC(=O)[C@H](C(C)C)N(CCc1cn(Cc2ccc(C)cc2)nn1)S(=O)(=O)c1ccccc1Br	0%	5%
CCCOc1ccc(C2=NC(c3ccncc3)=Nc3ccc(C)cc3N2)cc1	5%	9%
